From PubChem
MT1-MMP act inh – blockers of MT1-MMP proenzyme processing, primary screen, HT1080 RFP-PRO-GFP cells, GFP/RFP fluorescence; Matrix metalloproteinase-14 (Homo sapiens), P50281; GFP/RFP ratio fluorescence, overnight; percent of plate control window, DMSO zero; GFP/RFP ratio change, % at 20 µM; hit rate 0.061% among 360,000; AID 651647, 2012;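 active = GFP/RFP ratio change of at least 30% with cell ATP level not reduced by more than half and red fluorescence within 50% of control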; note: strong numbers were not always called active
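Material: RFP-PRO-GFP reporter HT1080 cells. Dosing: single-point 20 µM compound, 1% DMSO. Controls: DMSO and RFP-L50D-GFP cell wells. Timing: cells overnight before dosing, compound overnight, 37 °C, 5% CO2. Measure: GFP/RFP fluorescence ratio.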
PABP FP inh – PABP poly(A) RNA binding inhibitors, primary screen, biochemical, fluorescence polarization, uHTS; hit rate 1% among 290,000; Polyadenylate-binding protein 1 (Homo sapiens), P11940; inhibition, % at 35 µM;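 active = 50% or more with normal probe brightness, or confirmed in later tests; inconclusive = above 50% with abnormal brightness, or retests that disagree; inactive = below 50% or failed in later tests; about a fifth of its hits are not listed in these tables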;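 note: calls also rest on retests at 20 µM and on dose response follow-up; controls were probe without protein and protein plus probe with vehicle; some compounds called inactive have numbers as strong as hits; many hits fall short of the cut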
Env fusion inh – inhibitors of HIV-1 Env-driven cell-cell fusion, primary screen, HeLa-JRFL effector, CEM21 target cells, luciferase | hit rate 1.1% among 360,000 | AID 651610, 2012 | inhibition, % at 12.3 µM;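 active = mean replicate inhibition score of at least 50 and every replicate individually at or above 50; inconclusive = only one of the two criteria met; inactive = mean below 50 and not all replicates reaching 50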;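 note: 0% = plate neutral controls and 100% = maraviroc near 300 nM; one replicate is shown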
Rce1 inh – yeast Rce1p protease inhibitors, primary screen, biochemical, fluorescence, cell-free homogeneous. CAAX prenyl protease 2 (Saccharomyces cerevisiae (strain ATCC 204508 / S288c)), Q03530. yeast membranes, quenched prenylated peptide cleavage fluorescence. calls only. hit rate 0.27% among 290,000;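 active = fall in fluorescence gain of 50% or more versus controls, with final raw signal at or below 3038400; inconclusive = same 50% fall but final raw signal above 3038400; inactive = fall in fluorescence gain under 50%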;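 note: plate controls were neutral control wells for no effect and wells lacking membranes for full effect; tested at 10 µM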
Target sequence (Q03530 whole entry, looked up): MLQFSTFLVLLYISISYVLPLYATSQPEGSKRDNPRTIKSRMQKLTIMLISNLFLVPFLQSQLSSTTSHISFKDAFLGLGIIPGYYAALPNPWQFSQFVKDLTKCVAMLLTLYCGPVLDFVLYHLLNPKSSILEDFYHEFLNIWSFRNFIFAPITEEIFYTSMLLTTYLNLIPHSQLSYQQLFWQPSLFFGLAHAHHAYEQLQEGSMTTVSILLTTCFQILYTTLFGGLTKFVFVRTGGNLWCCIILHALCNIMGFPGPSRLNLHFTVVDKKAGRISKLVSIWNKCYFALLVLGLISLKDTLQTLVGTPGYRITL
CSC inhib – cancer stem cell viability inhibitors, primary screen, luminescence; inhibition, % at 7.5 µM; hit rate 1.1% among 300,000; cancer stem cell-like cells viability;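 active = mean at 75% or more and at least half the replicates too; inconclusive = mean and replicates disagree; tested in HMLE shEcad cells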;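 note: 0% = median of negative and 100% = median of positive control wells; the first replicate is given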
eIF4H FP inh – human eIF4H binding inhibitors, primary screen, translation initiation inhibitor project, biochemical, uHTS, fluorescence polarization | Eukaryotic translation initiation factor 4H (Homo sapiens), Q15056 | eIF4H fluorescence polarization binding assay | inhibition, % at 35 µM | hit rate 0.94% among 290,000;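 active = 50% or more with normal probe brightness, or confirmed in later tests; inconclusive = above 50% with abnormal brightness, or retests that disagree; inactive = below 50% or failed in later tests; about a fifth of its hits are not listed in these tables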;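 note: calls also rest on retests at 20 µM and on dose response follow-up; 0% = protein and probe with vehicle and 100% = probe without protein; strong numbers were not always called active; many hits fall short of the cut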
Yeast UUG start – modulators of yeast start codon fidelity, primary screen, whole organism, S. cerevisiae, single point, plate reader; S. cerevisiae UUG-firefly luciferase reporter, luminescence/redox ratio; activity score, % at 18.7 µM; hit rate 0.13% among 350,000;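 active = replicate mean at a twofold rise or more, about +100% in these data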;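 note: firefly luciferase made from a UUG start codon reports start codon fidelity; reporter light over untreated wells divided by growth signal over untreated wells; some hits fall short of that in this replicate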
MT1-MMP act inh RFP – recorded beside MT1-MMP act inh, whose call it bears; RFP signal change, %; measured here: RFP expression control read;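 0 = vehicle wells; hits needed this value within 50% of zero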
* hit, by the source's call; i = inactive; ? = inconclusive; · = not tested or not shown; & = joins results of further samples; [ ] = another dose, or the depositor's remark.

SMILES | MT1-MMP act inh | MT1-MMP act inh RFP | PABP FP inh | Env fusion inh | Rce1 inh | CSC inhib | eIF4H FP inh | Yeast UUG start
CCN1CCN(C(=O)C(C)N(c2ccc(C)cc2)S(C)(=O)=O)CC1 (stereo not given) | 3 | 6 | -8 | · | i | · | -4 | -6
CN1C(=O)NC2(O)C(=O)c3ccccc3C12O (stereo not given) | -4 | 3 | -2 | 6 | i | · | -4 | -34
CCOc1ccc2[nH]c(=O)c(CN(Cc3ccco3)Cc3nnnn3Cc3ccccc3)cc2c1 | -1 | 5 | 5 | · | i | -13 | 2 | -6
CC(C)NC(=O)N(C)C[C@H]1Oc2c(NC(=O)C3CCCCC3)cccc2C(=O)N([C@H](C)CO)C[C@@H]1C | 2 | 4 | · | 1[16.7 µM] | · | · | · | 4&-20
O=C(CCCc1ccccc1)NCCc1ccccc1 | -1 | 1 | 0 | -3 | i | -6 | 0 | -10
CNC(=O)CSc1nnc(-c2ccccc2F)n1CCc1ccccc1 | 1 | 2 | 2 | 13 | i | -3 | 2 | -4
Cc1noc(C)c1CSCc1ccc(Cl)cc1 | 2 | -4 | -6 | -24 | · | · | 0 | -16
CC(C)c1ccc(C(N)=S)cc1 | -1 | 2 | 0 | -18 | i | 2 | -41 | ·
COc1ccc(CNC(=O)COC(=O)/C=C/c2ccc(S(=O)(=O)N3CCOCC3)cc2)cc1 | 2 | 2 | -2 | 13 | i | -8 | 12 | -4
COc1ccccc1NC(=O)Nc1nnc(C(C)c2ccccc2)s1 (stereo not given) | 2 | -3 | -3 | 5 | i | 71 | 1 | -17
Cc1ccc(NC(=O)C2CCN(S(=O)(=O)c3ccc4c(c3)OCCO4)CC2)c(O)c1 | 4 | 1 | · | · | i | -4 | · | -4
CN(CCc1ccccc1)C(=O)c1ccc(NC(=O)Cc2ccc(NC(=O)C3CCCN(C(=O)c4ccccc4)C3)cc2)cc1 (stereo not given) | -1 | -23 | · | 7 | · | · | · | 0
CC(C)(S)[C@@H](N)C(=O)O | 6 | 5 | -12 | -26 | i | · | 9 | -20
CCN(CC)c1ccc(NC(=O)CNCc2ccccc2Cl)c(C)c1 | 2 | 1 | 2 | 19 | i | 10 | 2 | -12
COC(=O)c1ccc2c(c1)C(C)(C)C(/C=C/c1ccccc1O)=[N+]2C | 93 | 90 | ? | i | · | 78* | ? | ·
COc1cc(C(=O)NCC(C)(C)CNC(=O)c2cc(OC)c(OC)c(OC)c2)cc(OC)c1OC | -1 | -2 | 0 | 14 | i | -12 | -9 | 18
O=C(COC(=O)C(c1ccccc1)c1ccccc1)NCc1ccco1 | -5 | -5 | -4 | -9 | i | 8 | 42 | ·
Cc1cccc(CCNC(=O)c2cc(S(=O)(=O)N3CCCCC3)c[nH]2)c1 | -3 | -5 | -11 | -12 | i | -2 | -4 | -2
O=C(c1cnn2c(C(F)(F)F)cc(-c3ccccc3)nc12)N1CCCc2ccccc21 | 0 | -1 | -3 | · | i | -10 | -13 | -20
CC1CCCN(C(=O)c2ccc3c(=O)n4nc(Nc5ccccc5)sc4nc3c2)C1 (stereo not given) | 3 | -3 | · | -62 | · | · | · | -5
Cc1nc(NC(=O)CN2CCOCC2)sc1-c1ccccc1 | 1 | -2 | 5 | · | i | -10 | 10 | -1
N=c1c(C(=O)NCC2CCCO2)cc2c(=O)n3ccccc3nc2n1C1CCCCC1 (stereo not given) | 4 | 6 | 13 | -8 | i | -3 | -10 | -15
COc1ccc(NC(=S)NCCc2ccccc2OC)c(OC)c1 | 3 | 2 | -12 | -4 | i | -4 | 2 | -34
O=C1[C@H]2[C@H](C=CC[C@H]2C(=O)N2CCOCC2)CCN1Cc1ccccc1 | 0 | 1 | · | -9 | i | -9 | · | -11
NS(=O)(=O)c1ccc(CNC(=O)c2cc(-c3ccccn3)nc3ccc(Cl)cc23)cc1 | -3 | 7 | 1 | 22 | i | -15 | ? | ·

Some entries already given with just Rce1 inh and eIF4H FP inh:
Structure	Rce1 inh	eIF4H FP inh
O=C(COC(=O)C(c1ccccc1)c1ccccc1)NCc1ccco1	i	42
Cc1cccc(CCNC(=O)c2cc(S(=O)(=O)N3CCCCC3)c[nH]2)c1	i	-4

13 entries from above, ordered by length of the SMILES, rising.
SMILES | MT1-MMP act inh | MT1-MMP act inh RFP | PABP FP inh | Env fusion inh | Rce1 inh | CSC inhib | eIF4H FP inh | Yeast UUG start
CC(C)c1ccc(C(N)=S)cc1 | -1 | 2 | 0 | -18 | i | 2 | -41 | ·
CC(C)(S)[C@@H](N)C(=O)O | 6 | 5 | -12 | -26 | i | · | 9 | -20
Cc1noc(C)c1CSCc1ccc(Cl)cc1 | 2 | -4 | -6 | -24 | · | · | 0 | -16
O=C(CCCc1ccccc1)NCCc1ccccc1 | -1 | 1 | 0 | -3 | i | -6 | 0 | -10
CN1C(=O)NC2(O)C(=O)c3ccccc3C12O (stereo not given) | -4 | 3 | -2 | 6 | i | · | -4 | -34
COc1ccc(NC(=S)NCCc2ccccc2OC)c(OC)c1 | 3 | 2 | -12 | -4 | i | -4 | 2 | -34
COc1ccccc1NC(=O)Nc1nnc(C(C)c2ccccc2)s1 (stereo not given) | 2 | -3 | -3 | 5 | i | 71 | 1 | -17
N=c1c(C(=O)NCC2CCCO2)cc2c(=O)n3ccccc3nc2n1C1CCCCC1 (stereo not given) | 4 | 6 | 13 | -8 | i | -3 | -10 | -15
O=C1[C@H]2[C@H](C=CC[C@H]2C(=O)N2CCOCC2)CCN1Cc1ccccc1 | 0 | 1 | · | -9 | i | -9 | · | -11
Cc1ccc(NC(=O)C2CCN(S(=O)(=O)c3ccc4c(c3)OCCO4)CC2)c(O)c1 | 4 | 1 | · | · | i | -4 | · | -4
COc1ccc(CNC(=O)COC(=O)/C=C/c2ccc(S(=O)(=O)N3CCOCC3)cc2)cc1 | 2 | 2 | -2 | 13 | i | -8 | 12 | -4
COc1cc(C(=O)NCC(C)(C)CNC(=O)c2cc(OC)c(OC)c(OC)c2)cc(OC)c1OC | -1 | -2 | 0 | 14 | i | -12 | -9 | 18
CN(CCc1ccccc1)C(=O)c1ccc(NC(=O)Cc2ccc(NC(=O)C3CCCN(C(=O)c4ccccc4)C3)cc2)cc1 (stereo not given) | -1 | -23 | · | 7 | · | · | · | 0

More results:
SMILES | MT1-MMP act inh | MT1-MMP act inh RFP | PABP FP inh | Env fusion inh | Rce1 inh | CSC inhib | eIF4H FP inh | Yeast UUG start
CCOc1ccc(NS(=O)(=O)c2ccc(C(=O)NCC(c3ccc(OC)cc3)N3CCOCC3)cc2)cc1 (stereo not given) | 3 | -2 | · | 8 | i | -13 | · | ·
CC(C)C(NC(=O)c1cccs1)c1nnc(SCC(=O)Nc2nccs2)n1C (stereo not given) | -2 | 2 | -6 | · | i | -16 | -4 | -3
CC(C)(C)C(=O)OCc1nc(-c2ccc(O)c(O)c2)cs1 | 8 | 0 | 10 | 11 | i | 29 | 1 | -80
O=C(c1cc(COc2ccc(F)c(F)c2)on1)N1CCN(C/C=C/c2ccccc2)CC1 | 3 | -6 | 5 | 3 | i | · | 1 | 0
CCOC(=O)CSc1nc(Cc2ccccc2)nc2ccccc12 | 0 | -2 | 9 | 56* | i | -2 | -5 | ·
CC(=O)Nc1ccc(NC(=O)CSc2nc3[nH]ncc3c(=O)n2-c2ccccc2)cc1 | -4 | 1 | -3 | 1 | i | 3 | -5 | -12
COc1ccccc1-c1cc2ccccc2[nH]1 | 1 | -2 | 5 | -28 | i | -6 | 6 | -14
COc1ccc(OC)c2c(C)cc(C)nc12 | 0 | 2 | 6 | 8 | i | -17 | 6 | ·
COc1ccc(OC)c(CCNC(=O)CC2Oc3ccccc3NC2=O)c1 (stereo not given) | -7 | -1 | 11 | 21 | i | -11 | 7 | -6

Some of the compounds tested, so the mix of outcomes need not match the whole.
